Compound activity (PubChem)
Tgondii IFNg: blocks Toxoplasma gondii growth in the presence of IFN-gamma; Toxoplasma gondii growth in IFN-gamma-treated host cells; active compounds read low; reference of the scale not given here; activity change, negative = inhibition, %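 (about 20 µM by stock and volumes)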; hit rate 3.8% among 69,000;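 active means below -70%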;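 further: host cells are HeLa cells infected with Toxoplasma gondii; parasite growth read as luciferase light; one replicate is shown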
* = called active by the depositor; i = inactive; & = joins results of further samples.

SMILES	Tgondii IFNg
Cc1ccc(-c2cccc(C(=O)NCCSc3nnnn3C)c2)o1	-16
O=C(C[C@H]1CC[C@@H]2[C@H](COC[C@H](O)CN2C(=O)Nc2cccc(F)c2)O1)NCCCN1CCOCC1	-60
O=S(=O)(c1ccc2ccccc2c1)N1CCN(c2nnnn2-c2ccccc2)CC1	-5
Cn1cc(C[C@H]2[C@H](O)CCN2C(=O)Cc2ccsc2)cn1	-2
CCc1cc2c(=O)n(CC(=O)N(C)Cc3nnc(-c4ccccc4)o3)cnc2s1	-7
Cc1onc(-c2c(F)cccc2Cl)c1-c1nnc(-c2ccc(C(F)(F)F)cc2)o1	-99*
CN(Cc1csc(-c2ccccc2)n1)C(=O)c1cc2n(n1)CCCNC2	105
C[C@@H]1CN([C@@H](C)CO)S(=O)(=O)c2ccc(-c3ccc(F)cc3)cc2O[C@@H]1CN(C)Cc1ccccc1C(=O)O	214
Clc1cccc(-c2nnc(-c3ccno3)o2)c1	33
COc1c(C)cccc1C(=O)N1CCC(c2nn(CCN)c3ncccc23)C1 (stereo unspecified)	-36
CCCS(=O)(=O)N1C[C@H]2CCCO[C@H]2[C@@H](Nc2ccccn2)C1	-1
CN1C(=O)CCc2cc(NC(=O)c3cccnc3)ccc21	23
Nc1nccc(N2CC[C@@H](N3CCCCCC3)[C@H](O)C2)n1	-2
Cc1cccc(C)c1NC(=O)c1cccc(CN(C)C(C)C(=O)N(C)C)c1 (stereo unspecified)	-3
CCn1cc(C(=O)N2CCC(Oc3ccc(C(=O)NCCc4ccccc4)cc3)CC2)cn1	2
C=CCN1CCN(C(C)C)C(=O)C12CCN(C(=O)c1cc(C)[nH]n1)C2 (stereo unspecified)	3
Cc1nc2cc(C(=O)N3CCN(Cc4ccco4)C[C@@H]3C(C)C)ccc2n1C	-22
CC(NC(=O)Cc1ccc2c(c1)CCCO2)c1cc(=O)[nH]c(N2CCN(C)CC2)n1 (stereo unspecified)	-8
CC(C)CC(O)C1CCN(Cc2cn[nH]c2-c2ccc(F)cc2)CC1 (stereo unspecified)	5
C[C@H](CO)N1C[C@H](C)[C@H](CN(C)C(=O)CCC(F)(F)F)OCc2cnnn2CCCC1=O	230
O=C(c1cncc(NS(=O)(=O)c2ccccc2)c1)N1CCN(Cc2ccc3c(c2)OCO3)CC1	11
COc1ccc(-c2noc(-c3c(O)c4ccccc4n(C)c3=O)n2)c(OC)c1	-5
CN(Cc1cnccn1)C(=O)c1ccc(CSc2ncccn2)o1	3
Cc1ccc2c(c1)c1c3n2CCN(CCCCN2C(=O)CC4(CCCC4)CC2=O)C3CCC1 (stereo unspecified)	i
CCOc1ccccc1-c1nc(CSc2nc3c(=O)[nH]cnc3n2C)c(C)o1	8

In another format: 4 of the compounds above
| Compound | Tgondii IFNg |
| --- | --- |
| C[C@H](CO)N1C[C@H](C)[C@H](CN(C)C(=O)CCC(F)(F)F)OCc2cnnn2CCCC1=O | 230 |
| O=C(c1cncc(NS(=O)(=O)c2ccccc2)c1)N1CCN(Cc2ccc3c(c2)OCO3)CC1 | 11 |
| COc1ccc(-c2noc(-c3c(O)c4ccccc4n(C)c3=O)n2)c(OC)c1 | -5 |
| CN(Cc1cnccn1)C(=O)c1ccc(CSc2ncccn2)o1 | 3 |

Next section:
SMILES	Tgondii IFNg
COc1ccc(CN2CCN(Cc3ccc(Cl)cc3)CC2)c(F)c1F	-41
CCc1noc(-c2cc(=O)n(CC(=O)NCc3ccccc3F)c3ccccc23)n1	-3
COC(=O)c1c(NC2CCC(C)CC2)c2cc(F)ccc2[nH]c1=O (stereo unspecified)	-42
CC(C)[C@@H]1COCc2cnnn2CCC[C@H](C)C(=O)N1	-53
COc1ccc(-c2nc(Cn3c(C)nc4onc(C)c4c3=O)c(C)o2)c(OC)c1	67
O=C(NC1CCCC1)c1cncc(NS(=O)(=O)c2ccc3c(c2)OCCO3)c1	10
O=C1c2ccccc2C(Cc2ccncc2)(Cc2ccncc2)c2ccccc21	7&17
Cc1coc(=O)n1-c1ccc(Cl)cc1Cl	1
O=c1[nH]c(-c2cccs2)nc2ccccc12	-68
CC(C(=O)NCc1cccnc1N(C)Cc1ccccc1)n1ccnc1 (stereo unspecified)	7
CCOC(=O)Cc1csc(NS(=O)(=O)c2cc(Cl)ccc2Cl)n1	16
CCS(=O)(=O)N1CCC2(CC1)COC(COc1ccccn1)C2 (stereo unspecified)	-3
CCOc1ccc(N2C(=O)CC(N3CCN(Cc4ccccc4)CC3)C2=O)cc1 (stereo unspecified)	13
C=CCn1c(=O)c(C(=O)Nc2cc(F)ccc2C)c(O)c2ccccc21	160
Cc1ccccc1NC(=O)N1C[C@H]2[C@H](C(=O)NCC(C)C)CCS(=O)(=O)[C@H]2C1	3
CC1Cc2cc(CN(C)C(=O)CCS(=O)(=O)c3cccc4cccnc34)ccc2O1 (stereo unspecified)	-26
O=C(CCSc1ccc2c(c1)OCCO2)NCc1cnc2ccccc2c1	-17
O=C(CC1CC1)N1[C@H](CO)[C@@H]2c3ccccc3N(S(=O)(=O)c3ccccc3F)C[C@@H]21	-9
Cc1oc(-c2ccc(C(=O)NC(C)CCc3ccccc3)cc2)nc1CN1CCc2ccccc21 (stereo unspecified)	-10
Cc1cc(=O)[nH]c(SCc2ccccc2)n1	-9
O=C(c1ccccc1)c1cccc(NC(=O)c2c(F)cccc2Cl)c1	16
CNC(=O)c1cc2c(nc1NCC1CC1)CCN(Cc1cnn(C)c1)CC2	-9
C=CCOC[C@@H]1CCC[C@]12CN(Cc1ccc(C)s1)CCO2	-7
COc1ccc(CC2CN(C(=O)c3cccc(-c4ncc[nH]4)c3)CCO2)cc1 (stereo unspecified)	-7
Fc1cccc(CNCc2ccccc2)c1	0

Not a retest: entries from further up.
SMILES	Tgondii IFNg
Cc1cc(=O)[nH]c(SCc2ccccc2)n1	-9
O=C(c1ccccc1)c1cccc(NC(=O)c2c(F)cccc2Cl)c1	16
CNC(=O)c1cc2c(nc1NCC1CC1)CCN(Cc1cnn(C)c1)CC2	-9
C=CCOC[C@@H]1CCC[C@]12CN(Cc1ccc(C)s1)CCO2	-7
COc1ccc(CC2CN(C(=O)c3cccc(-c4ncc[nH]4)c3)CCO2)cc1 (stereo unspecified)	-7
Fc1cccc(CNCc2ccccc2)c1	0

Part of the list above in order of length of the SMILES, high to low.
SMILES	Tgondii IFNg
O=C(NC1CCCC1)c1cncc(NS(=O)(=O)c2ccc3c(c2)OCCO3)c1	10
CCOc1ccc(N2C(=O)CC(N3CCN(Cc4ccccc4)CC3)C2=O)cc1 (stereo unspecified)	13
CCOC(=O)Cc1csc(NS(=O)(=O)c2cc(Cl)ccc2Cl)n1	16
CC(C)[C@@H]1COCc2cnnn2CCC[C@H](C)C(=O)N1	-53
CC(C(=O)NCc1cccnc1N(C)Cc1ccccc1)n1ccnc1 (stereo unspecified)	7
Cc1cc(=O)[nH]c(SCc2ccccc2)n1	-9

(continued)
SMILES	Tgondii IFNg
COc1ncccc1C(=O)N1CCOc2ccc(C(O)C(c3ccccc3)c3ccccc3)cc2C1 (stereo unspecified)	-6
C[C@@H]1CN([C@@H](C)CO)C(=O)Cc2cc(NC(=O)CCCCCC(=O)Nc3ccccc3N)ccc2O[C@@H]1CN(C)S(=O)(=O)c1cccs1	7
O=c1[nH]nc(CCc2ccccc2)n1-c1ccc2c(c1)OCO2	10
CCC(=O)N1[C@@H]2c3ccc(C4=CCCCC4)c(=O)n3C[C@@H]2[C@@H](CO)[C@@H]1C(=O)NCc1ccc(F)cc1	2
CC(C)(C)CC(=O)N1CCn2nnc(COCc3cccnc3)c2C1	-8
Cc1ccc(C)c(NC(=O)N2CCC(c3nc(C(=O)N4CCOCC4)c(C)o3)CC2)c1	76
COCCn1ccnc1CN1CCN(C(=O)c2ccccc2)CC1	188
CC1(C)Cc2ccccc2-c2nnc(SCC(N)=O)n21	-7
COc1ccc(OC)c(NC(=O)Nc2ccc(-c3nc(-c4ccccc4)co3)cc2)c1	34
COc1ccc(-c2cc3c(=O)n(Cc4nc(-c5ccc(C)cc5)oc4C)ccn3n2)cc1OC	-39
Cc1nc(CCC(=O)N2CCCC3(C2)C(=O)Nc2ccccc23)n[nH]1 (stereo unspecified)	-58
COc1cc(CN2CC3(CCN(C(=O)Nc4c(C)noc4C)CC3)c3c(n(C)c4cc(OC)ccc34)[C@H]2CO)cc(OC)c1	i
COc1ccc2c3c(n(C)c2c1)[C@@H](CO)N(C(=O)Cc1ccccc1)CC31CN(C)C1	7
COc1cc2c(cc1CN1CCCC1c1ccccn1)OCCCO2 (stereo unspecified)	-43
O=C(Nc1ccc(F)cc1)c1c(O)c2ccccc2[nH]c1=O	106
Cn1c(CCNC(=O)CC2NC(=O)N(C3CCCCC3)C2=O)nc2ccccc21 (stereo unspecified)	-1
COC(=O)CSCc1n[nH]c(=O)c2ccccc12	-10
Cc1nc(C)c(CC(=O)N2CCCC(COc3ccc(F)cc3)C2)s1 (stereo unspecified)	-25
Nc1ncnc2c1ncn2[C@@H]1O[C@H](COP(=O)(O)OP(=O)(O)OP(=O)(O)O)[C@@H](O)[C@H]1O	-51
CCOc1ccc(NC(=O)C(=O)NCCc2sc(-c3ccc(F)cc3)nc2C)cc1	-4
O=C1CSC(=O)N1	23
C=CCn1c(=O)c(C(=O)Nc2ccccc2Cl)c(O)c2ccccc21	74
O=C(c1ccco1)N1CC2CC(C1)CN(C(=O)C1CCOC1)C2 (stereo unspecified)	-4
O=C1c2ccccc2S(=O)(=O)N1CCCN1CCN(c2ncccn2)CC1	11
CC(C)SCCNS(=O)(=O)c1sc2c(c1C(=O)O)CCNC2	5

Next section
SMILES	Tgondii IFNg
CCS(=O)(=O)N[C@H]1CC[C@H](CC(=O)NCc2ccc(Cl)cc2)O[C@H]1CO	-19
Cc1oc(-c2ccc(NC(=O)C3CCCC3)cc2)nc1Cn1cccn1	38
Cc1nc(-c2ccc(Cl)cc2)sc1CCNS(=O)(=O)CCc1ccccc1	257
Cc1ccc(-c2nc(Cn3nnc(C(=O)NCc4cccnc4)c3C)c(C)o2)cc1	-12
Cc1nc(C2CC2)ncc1C(=O)NCc1nccn1Cc1ccccc1	2
COc1ccc(NC(=O)c2nnn(Cc3nc(-c4ccccc4C)oc3C)c2C)c(OC)c1	2
N#Cc1cccc(-c2ccc(C3[C@H]4CNC[C@@H]3N4Cc3cccc(-c4ccncc4)c3)cc2)c1 (stereo partly specified)	-53
Cc1cccnc1CN1CCN(Cc2nc[nH]c2C)CC1	8
CN(C)CCNc1cn[nH]c(=O)c1Cl	-67
CCCN1CSC(=S)N(CCC)C1	7
Cc1ccc(-c2nc(-c3ccc(Br)o3)no2)cc1	i
CCCCS(=O)(=O)N1CCc2ncnc(C3CC3)c2CC1	-15
COc1ccc(OC)c(C2CCCN2C(=O)CCn2cnnn2)c1 (stereo unspecified)	-18
Cc1ccc(C)c(NC(=O)Cn2c(=O)cc(C(=O)N3CCOCC3)c3ccccc32)c1	0
CC(C)N(Cc1nccn1C)C(=O)c1ccc(-c2nnn(C)n2)cc1	0
CC1=CS(=O)(=O)c2ccc(Cl)cc21	-5
CC(C)n1nc(Cn2cccn2)c2c1CN(CCO)C2	3
CCOc1ccc(C(=O)Nc2ccc3c(c2)CCC(=O)N3CCOC)cc1	-22
Oc1c(Cl)cc(Cl)cc1C1Nc2cc(Cl)c(C(F)(F)F)cc2N1 (stereo unspecified)	-88*
c1ccc2[nH]c(CCNc3nc(-c4ccncc4)nc4c3CCNC4)nc2c1	-15
COc1ccc(NC(=O)C(C)n2cccn2)cc1NC(=O)c1ccccc1 (stereo unspecified)	-2
C=CCn1c(=O)c(C(=O)NCCc2cccc(OC)c2)c(O)c2ccccc21	63
CC(C)Nc1cc(N2CCN(Cc3nccn3C(C)C)CC2)ncn1	-13
CC(C)c1cc(Cn2nc(C3CCCNC3)n(-c3ccccc3)c2=O)on1 (stereo unspecified)	4
Cc1ccc(Oc2ncccc2NC(=O)CCCC(=O)O)c2c1CCC2	39

(list continues)
SMILES	Tgondii IFNg
O=S(=O)(Cc1ccc(Cl)cc1Cl)C1CCCCC1O (stereo unspecified)	-49
Cc1oc(C2CCN(C(=O)c3cccc(C#N)c3)CC2)nc1C(=O)N1CCCC1	-3
Cc1cccc(Nc2nc(-c3sc(C)nc3C)cs2)c1	25
C[C@H]1CC(=O)N[C@@H](c2ccccc2)C/C=C\C[C@H](c2ccccc2)NC1=O	-1
Cc1ccc(-c2coc(-c3ccc(NC(=O)NCc4cccc(F)c4)cc3)n2)c(C)c1	25
CCOC(=O)c1nc(NCCc2c[nH]c3ccc(C)cc23)c2c(C)noc2n1	14
c1ccc(-c2ncn(CCCCN3CCCC3)c2-c2cccnc2)cc1	-5
CC(C)c1nccc(-c2c(-c3ccccc3)ncn2C(C)Cc2ccncc2)n1 (stereo unspecified)	-52
CN1CCO[C@H]2CN(c3cccc(F)c3)CC[C@@H]2C1	-1
COc1cccc(CC2(C3CCNCC3)NC(=O)NC2=O)c1 (stereo unspecified)	2
CCc1nnc(CN2CCC3(CCCO3)CCC2=O)o1 (stereo unspecified)	-1
COc1cccc(S(=O)(=O)N2C[C@@H](O)COC[C@H]3O[C@@H](CC(=O)NCCCN4CCOCC4)CC[C@@H]32)c1	17
CCOC(=O)c1c(NCc2ccccc2Cl)c2cccc(Cl)c2[nH]c1=O	-44
CCN1CC[C@@]2(CN(C(=O)C3CCOCC3)C[C@H]2c2ccccc2)C1=O	-11
CNC(=O)c1cc(=O)n(CC(=O)Nc2ccccc2Cl)c2ccccc12	23
Cc1ccccc1C(=O)N1CCN(c2ccc(NC(=O)c3cccnc3Cl)cc2)CC1	35
CN1C(=O)c2cc(NC(=O)c3ccc4c(c3)OCO4)ccc2OC[C@@H]2O[C@@H](CC(=O)O)CC[C@H]21	7
Clc1ccc(CSc2nnc(-c3c[nH]c4ccccc34)o2)cc1	-58
O=C(O)CC1(CC(=O)NCc2cccc(Cl)c2)CCCCC1	8

The list is partial. The share of hits here may be higher or lower than overall.
